Mtb hypoxia inh – inhibitors of hypoxia-regulated fluorescent reporter in Mycobacterium tuberculosis | M. tuberculosis hypoxia-regulated fluorescent reporter, fluorescence | fluorescence inhibition, % (concentration not given with the values) | 300,000 tested, 0.1% active;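 active = 35 to 45% if threefold the growth effect, above 45% if 1.5-fold the growth effect; inactive = the rest, general growth blockers included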;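 also: wells of about 50 µL received 100 nL stock; 0% = vehicle wells and 100% = reference inhibitor wells; whole bacteria with a GFP reporter of the hypoxia response; strong numbers were not always called active; many hits fall short of the cut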
Autofluor counter – compound fluorescence in toxin protease inhibitor counterscreen | compound autofluorescence counterscreen, microsphere flow cytometry; active compounds read high | fluorescence intensity (concentration not given with the values) | 360,000 tested, 3.1% active;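 active = at least 3 SD above the mean of all compounds, about 16000 in these data; inconclusive = too few beads counted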;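 also: 100 nL of 1 mM stock went into each well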
PrP UTR inh – suppresses PrP 5' UTR mRNA reporter expression; cell-based PrP 5' UTR mRNA reporter, plate reader; inhibition, % (no concentration beside the values); 340,000 tested, 0.35% active;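 active = every replicate at 50% or more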;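 also: 0 = median of the neutral control wells; tested in H4 reporter cells; numbers are from one replicate; inactives centre near -14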
ugtP null kill – growth inhibition of S. aureus ugtP deletion strain; S. aureus RN4220 ugtP deletion, OD600 growth, 16 h; some inactives read as strong as hits; growth inhibition, % (concentration not given with the values); 330,000 tested, 0.54% active; AID 1259309;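 active = z-score under -3 and OD600 up to 0.15 on both plates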;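 also: plate controls were untreated wells for no effect and antibiotic for full effect; wells of about 80 µL received 100 nL stock; the first replicate is given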
Sa RN4220 lethal – S. aureus RN4220 growth inhibition; inhibition, % (concentration not given with the values); AID 1259311; OD600, 16 h; 330,000 tested, 0.33% active;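 active = z-score of -3 or lower and OD600 up to 0.18 on both plates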;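 also: plate controls were untreated cells for no effect and reference antibiotic for full effect; stock transfer was 100 nL into about 80 µL; one replicate is shown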
BJeLR viability – kills HRASV12-expressing BJeLR cells. BJeLR (HRASV12) viability, CellTiter-Glo ATP luminescence, 48 h; reference of the scale not given here. inhibition, % (concentration not given with the values). 300,000 tested, 0.17% active;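 active = replicate mean above 50%; inconclusive = above 50% but judged a plate artefact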;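 also: 50 nL library stock added to about 25 µL; numbers are from one replicate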
Mtb hypoxia inh growth – also measured in Mtb hypoxia inh; calls as there; growth inhibition, %; measured here: M. tuberculosis growth (absorbance);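 0% = vehicle and 100% = reference antibiotic; read after six days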
Active calls of the source: *. Compounds were not picked by outcome (roughly 4% active in at least one column).

For CC1=CC(C)(C)N2C(=O)C3(C(C#N)=C(N)Oc4cc(O)ccc43)c3cccc1c32 (configuration not stated) the results were Mtb hypoxia inh 1, Autofluor counter 2256, PrP UTR inh -45, ugtP null kill -25, Sa RN4220 lethal -3.9, BJeLR viability -2 and Mtb hypoxia inh growth 7.
Screening COC(=O)C1C2CC3c4[nH]c5cc(OC)ccc5c4CCN3CC2CC(OC(=O)CC(C)=O)C1OC (configuration not stated) returned Mtb hypoxia inh -4, Autofluor counter 4775, PrP UTR inh 36, ugtP null kill 0, Sa RN4220 lethal 1.3 and Mtb hypoxia inh growth 19.
Screening O=C(NCc1ccco1)C(=O)NCC1OCCCN1S(=O)(=O)c1ccc(F)cc1 (configuration not stated) returned Mtb hypoxia inh -2, Autofluor counter 2579, PrP UTR inh -21, ugtP null kill 4, Sa RN4220 lethal 1.0, BJeLR viability -4 and Mtb hypoxia inh growth -1.
For O=C(O)CSc1nnc(-c2cccc(S(=O)(=O)N3CCOCC3)c2)n1-c1ccc(F)cc1 the results were Mtb hypoxia inh 7, Autofluor counter inconclusive, PrP UTR inh -16, ugtP null kill 8, Sa RN4220 lethal 8.5 and Mtb hypoxia inh growth 2.
`Cc1ccc(C)c(S(=O)(=O)N2CCN(C(=O)CCC(=O)c3cc(C)sc3C)CC2)c1` gave Mtb hypoxia inh 10, Autofluor counter 4907, PrP UTR inh -5, ugtP null kill 0, Sa RN4220 lethal 4.4, BJeLR viability 7 and Mtb hypoxia inh growth 9.
Screening O=Nc1c(-c2ccccc2)cc2ccccn12 returned Mtb hypoxia inh 16, Autofluor counter 3853, PrP UTR inh -50, ugtP null kill 9, Sa RN4220 lethal 17, BJeLR viability -16 and Mtb hypoxia inh growth 28.
`COc1ccc2oc(=O)c(C(=O)NCc3ccc(C)cc3)cc2c1` gave Mtb hypoxia inh -8, Autofluor counter 4755, PrP UTR inh -4, ugtP null kill -9, Sa RN4220 lethal 7.0, BJeLR viability -1 and Mtb hypoxia inh growth -11.
Screening Cc1cccc(C(=O)NC(=S)Nc2ccc(S(=O)(=O)N3CCCCC3)cc2)c1 returned Autofluor counter 2428, PrP UTR inh -11, ugtP null kill 67, Sa RN4220 lethal -5.3 and BJeLR viability 8.
Screening COc1cc(OC)cc(C(=O)OCC(=O)NC(C)CCc2ccccc2)c1 (configuration not stated) returned Mtb hypoxia inh -2, Autofluor counter 3609, PrP UTR inh -2, ugtP null kill -1, Sa RN4220 lethal 0.3, BJeLR viability -13 and Mtb hypoxia inh growth 11.
`COc1ccc(C2CC(c3ccccc3)=NN2C(=O)COC(=O)CNC(=O)c2ccccc2)cc1` (configuration not stated) gave Mtb hypoxia inh 13, Autofluor counter 2235, PrP UTR inh 11, ugtP null kill 3, Sa RN4220 lethal 2.7, BJeLR viability -7 and Mtb hypoxia inh growth -1.
`O=C(Nc1cccc(C(=O)N2CCCC2)c1)c1ccccc1` gave Mtb hypoxia inh -6, Autofluor counter 23456*, PrP UTR inh -14, ugtP null kill -4, Sa RN4220 lethal -1.9, BJeLR viability -7 and Mtb hypoxia inh growth 9.
`CCO[C@H]1OC(C(=O)N2CCOCC2)=C[C@@H](C)[C@@H]1CCCO` gave Autofluor counter 3102, PrP UTR inh 1 and BJeLR viability -1.
For CCOc1ccc(OCCCC(=O)Nc2cc(Cl)ccc2-n2cncn2)cc1 the results were Mtb hypoxia inh 7, Autofluor counter 3032, PrP UTR inh -15, ugtP null kill 2, Sa RN4220 lethal 6.4 and Mtb hypoxia inh growth -2.
Screening CCOc1cc(-c2nc(-c3ccccc3OC)no2)cc(OCC)c1OCC returned Autofluor counter 2761, PrP UTR inh 1, ugtP null kill -21, Sa RN4220 lethal 2.0 and BJeLR viability 3.
COc1ccc(S(=O)(=O)N2CCOCC2)cc1Br was read as Mtb hypoxia inh -1, Autofluor counter 2597, PrP UTR inh -17, ugtP null kill -6, Sa RN4220 lethal 4.1, BJeLR viability 8 and Mtb hypoxia inh growth -6.
For O=C(COc1cccc(F)c1)Nc1nc(-c2ccncc2)cs1 the results were Mtb hypoxia inh 6, Autofluor counter 3700, PrP UTR inh -17, ugtP null kill -4, Sa RN4220 lethal -0.7 and Mtb hypoxia inh growth 7.
O=C(CSc1nnc(NC(=O)c2ccc(F)cc2F)s1)NC1CCCC1 was read as Mtb hypoxia inh 13, Autofluor counter 3765, PrP UTR inh -13, ugtP null kill 5, Sa RN4220 lethal -6.0, BJeLR viability 0 and Mtb hypoxia inh growth 3.
For CCN(CC)CCNC(=O)c1nn(-c2ccc(C)cc2)c(=O)c2c1c1ccccc1n2C the results were Autofluor counter 2538, PrP UTR inh -13, ugtP null kill 10, Sa RN4220 lethal 13 and BJeLR viability 2.
For CC(C)=CCN1CCN(Cc2cn(C(C)C)c3ccccc23)CC1CCO (configuration not stated) the results were Mtb hypoxia inh 4, Autofluor counter 3869, PrP UTR inh -22, ugtP null kill 5, Sa RN4220 lethal -0.2, BJeLR viability 3 and Mtb hypoxia inh growth 2.
Cc1ccc(N(CC(=O)NCCSCc2ccco2)S(C)(=O)=O)cc1 was read as Mtb hypoxia inh 10, Autofluor counter 10770, PrP UTR inh -18, ugtP null kill 10, Sa RN4220 lethal 1.8, BJeLR viability 5 and Mtb hypoxia inh growth 6.
`COc1cccc(-c2c(C(=O)N/N=C(\C)c3ccco3)nnn2-c2nonc2N)c1` gave Autofluor counter 4352, PrP UTR inh -28 and BJeLR viability 1.
O=S(=O)(/N=C(/Nc1ccc(Cl)c(S(=O)(=O)N2CCOCC2)c1)c1ccc(F)cc1)c1ccccc1 was read as Mtb hypoxia inh 5, Autofluor counter 6460, PrP UTR inh -10, ugtP null kill -3, Sa RN4220 lethal 11, BJeLR viability -7 and Mtb hypoxia inh growth 10.
CCC(C)c1ccccc1NC(=O)CN1CCN(C/C=C/c2ccccc2)CC1 (configuration not stated) was read as Mtb hypoxia inh -14, Autofluor counter 2052, PrP UTR inh -2, ugtP null kill 1, Sa RN4220 lethal 0.9, BJeLR viability -6 and Mtb hypoxia inh growth 4.
`COC(=O)CSc1cc(C(=O)c2nccn2C)c2ccccc2n1` gave Mtb hypoxia inh 5, Autofluor counter 3088, PrP UTR inh -9, ugtP null kill 13, Sa RN4220 lethal -0.3, BJeLR viability -1 and Mtb hypoxia inh growth 1.
Screening CS(=O)(=O)c1ccc(NS(=O)(=O)c2ccc3ccccc3c2)cc1 returned Mtb hypoxia inh 0, Autofluor counter 3820, PrP UTR inh -5, ugtP null kill 10, Sa RN4220 lethal 4.1, BJeLR viability -1 and Mtb hypoxia inh growth 8.
C=CCNC(=S)NNC(=O)CSc1nc2ccccc2s1 was read as Mtb hypoxia inh 4, Autofluor counter 2116, PrP UTR inh -6, ugtP null kill -3, Sa RN4220 lethal 6.8, BJeLR viability -3 and Mtb hypoxia inh growth -3.
Screening CCOC(=O)Cc1csc(NC(=O)c2cc(C)c(C)s2)n1 returned Mtb hypoxia inh 7, Autofluor counter 3676, PrP UTR inh -13, ugtP null kill 2, Sa RN4220 lethal 2.8 and Mtb hypoxia inh growth 11.
Screening CC1CCCCC1NC(=O)CCCn1c(=S)[nH]c2ccsc2c1=O (configuration not stated) returned Mtb hypoxia inh 6, Autofluor counter 5411, PrP UTR inh -2, ugtP null kill 1, Sa RN4220 lethal 2.0, BJeLR viability -1 and Mtb hypoxia inh growth 4.
`CCOC(=O)c1c(NC(=O)COC(=O)c2nc(Cl)ccc2Cl)sc2c1CCC2` gave Mtb hypoxia inh 11, Autofluor counter 2539, PrP UTR inh -9, ugtP null kill -4, Sa RN4220 lethal 5.4, BJeLR viability -4 and Mtb hypoxia inh growth 4.
For COCCn1c(SCC#N)nnc1-c1ccccc1 the results were Mtb hypoxia inh 6, Autofluor counter 10341, PrP UTR inh -25, ugtP null kill 6, Sa RN4220 lethal 5.0, BJeLR viability -3 and Mtb hypoxia inh growth 9.
For CCN(CC)Cc1c(O)c(Cl)cc2c3c(c(=O)oc12)CCCC3 the results were Mtb hypoxia inh 1, Autofluor counter 3693, PrP UTR inh -10, ugtP null kill 2, Sa RN4220 lethal 12, BJeLR viability 0 and Mtb hypoxia inh growth 11.
Screening Cc1ccc2nc3nc(NCC4CCCO4)c(C(=O)NC4CCCC4)cc3c(=O)n2c1 (configuration not stated) returned Mtb hypoxia inh 0, Autofluor counter 3473, PrP UTR inh -18, ugtP null kill 2, Sa RN4220 lethal 8.8, BJeLR viability -11 and Mtb hypoxia inh growth 3.
CCOC(=O)[C@@H]1CCN(Cc2ccccc2)C[C@H]1c1ccccc1 was read as Mtb hypoxia inh 10, Autofluor counter 4180, ugtP null kill 8, Sa RN4220 lethal 1.3, BJeLR viability -4 and Mtb hypoxia inh growth 11.
Screening Cc1[nH][nH]c(=O)c1C(c1ccc(Br)cc1)c1c(C)[nH][nH]c1=O returned Mtb hypoxia inh 2, PrP UTR inh -19, ugtP null kill 6, Sa RN4220 lethal 3.2, BJeLR viability -11 and Mtb hypoxia inh growth 0.
Screening CN1CCC(=NNC(=O)CSc2ccc(Cl)cc2)CC1 returned Mtb hypoxia inh 12, Autofluor counter 4477, PrP UTR inh -17, ugtP null kill 6, Sa RN4220 lethal 3.8, BJeLR viability 5 and Mtb hypoxia inh growth -7.
C=CCn1c(C)c(C(C)=O)c(N2CCN(C(c3ccccc3)c3ccccc3)CC2)nc1=S was read as Mtb hypoxia inh -6, Autofluor counter 6614, PrP UTR inh 1, ugtP null kill 2, Sa RN4220 lethal -4.4, BJeLR viability -1 and Mtb hypoxia inh growth 1.
CC(=O)Nc1cccc(NC(=O)c2ccccc2OCc2ccccc2)c1 was read as Mtb hypoxia inh 3, Autofluor counter 6171, PrP UTR inh -41, ugtP null kill -11, Sa RN4220 lethal -2.5, BJeLR viability 15 and Mtb hypoxia inh growth 0.
Screening NS(=O)(=O)c1ccc(-c2c(-c3ccccc3)sc3ccccc23)cc1 returned Mtb hypoxia inh 4, Autofluor counter 3706, PrP UTR inh -26, ugtP null kill -43, Sa RN4220 lethal -4.9 and Mtb hypoxia inh growth 0.
For O=C(O)c1ccc(NS(=O)(=O)c2ccc(Cl)c(Cl)c2)cc1O the results were Autofluor counter 4774, PrP UTR inh -11, ugtP null kill 2, Sa RN4220 lethal -2.4 and BJeLR viability -4.
For Cc1cc(C)cc(NC(=O)COC(=O)Cc2ccccc2F)c1 the results were Mtb hypoxia inh 0, Autofluor counter 5664, PrP UTR inh -32, ugtP null kill -1, Sa RN4220 lethal -0.3 and Mtb hypoxia inh growth 5.
`Cc1ccc(-c2cc(C(=O)N(C)CC(=O)Nc3ccccc3Br)c3ccccc3n2)o1` gave Mtb hypoxia inh 0, Autofluor counter inconclusive, PrP UTR inh -5, ugtP null kill -1, Sa RN4220 lethal -1.4, BJeLR viability 0 and Mtb hypoxia inh growth 4.
`c1ccc(C2Nc3ccccc3-c3nc4ccccc4n32)cc1` (configuration not stated) gave Mtb hypoxia inh 7, Autofluor counter 7224, PrP UTR inh -4, ugtP null kill 5, Sa RN4220 lethal -2.8, BJeLR viability -1 and Mtb hypoxia inh growth 1.
Screening CCOC(=O)c1sc(NC(=O)CSc2nncs2)c(C(=O)OCC)c1C returned Autofluor counter 4397, PrP UTR inh -8, ugtP null kill 4, Sa RN4220 lethal 0.1 and BJeLR viability -7.
Cc1nn(-c2ccccc2)c2c1P(=O)(O)/C(=C1\N(C)c3ccccc3C1(C)C)C=N2 was read as Mtb hypoxia inh 3, Autofluor counter 7494, PrP UTR inh -15, ugtP null kill -10, Sa RN4220 lethal 0.5, BJeLR viability 0 and Mtb hypoxia inh growth 5.

Three records drawn at random from the list so far, as already listed:
Screening CCOC(=O)c1sc(NC(=O)CSc2nncs2)c(C(=O)OCC)c1C returned Autofluor counter 4397, PrP UTR inh -8, ugtP null kill 4, Sa RN4220 lethal 0.1 and BJeLR viability -7.
Cc1nn(-c2ccccc2)c2c1P(=O)(O)/C(=C1\N(C)c3ccccc3C1(C)C)C=N2 was read as Mtb hypoxia inh 3, Autofluor counter 7494, PrP UTR inh -15, ugtP null kill -10, Sa RN4220 lethal 0.5, BJeLR viability 0 and Mtb hypoxia inh growth 5.
`c1ccc(C2Nc3ccccc3-c3nc4ccccc4n32)cc1` (configuration not stated) gave Mtb hypoxia inh 7, Autofluor counter 7224, PrP UTR inh -4, ugtP null kill 5, Sa RN4220 lethal -2.8, BJeLR viability -1 and Mtb hypoxia inh growth 1.

Bioassay records (PubChem)
